MgrA DNA FP: S. aureus MgrA-DNA binding modulation; inhibition, %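 (about 10 µg/mL by stock and volumes)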; hit rate 0.13% among 84,000; fluorescence polarization;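 active = above 50% in either of two replicates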;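 also: 0% = protein plus DNA without compound and 100% = DNA alone without protein; higher means less MgrA bound to DNA so lower polarization; one replicate is shown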
S aureus helic: blocks Staphylococcus aureus DNA helicase. purified S. aureus helicase, fluorescence unwinding assay; about half of the hits fall short of the stated cut. inhibition, %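 (tested at about 80 µM)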. hit rate 0.05% among 120,000;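 active = both duplicates at 50% or more, or one of them with a favoured structure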;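 also: 0% = mean of negative control wells and 100% = mean of positive control wells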
* marks the source's active call; other numbers are inactive results; · = no result given; & = joins results of further samples. A portion of the library. The share of hits here may be higher or lower than overall.

compound	MgrA DNA FP	S aureus helic
Cc1cc(C)n(CCOc2ncc(C(F)(F)F)cc2Cl)n1	-1.9	·
O=C(O)c1ccccc1C(=O)NCCCn1ccnc1	-2.1	3.0
O=C(C(c1ccccc1)c1ccccc1)N1CCOCC1	·	10.0
Cc1ccc(SCCC(=O)O)cc1	0.4	-22.0
C=CCn1c(CC(C)(C)C)nc2ccccc21	0.5	3.0
O=C(OCc1nc2ccccc2s1)c1cccc(S(=O)(=O)N2CCCC2)c1	·	11.0
O=C(CN1C(=O)/C(=C/c2ccccc2F)Oc2ccccc21)NCCCN1CCCC1	·	1.0
COC(=O)c1cccc(NC(=O)C(C)(C)C)c1	-1.6	·
COc1csc2nc(C)cc(C)c12	·	9.0
CCOC(=O)c1ccc(N=Cc2ccc(Cl)c(Cl)c2)cc1	-1.5	·
O=C(O)c1cc(=O)[nH]c2ccc(S(=O)(=O)N3CCOCC3)cc12	·	-8.0
Cc1onc(-c2ccccc2)c1C(=O)N(Cc1ccccc1)Cc1ccccc1	0.1	-6.0
Cc1sc2ncnc(Sc3nnc4ccccn34)c2c1C	·	6.0
C=CCN1C(=O)C2(/C(=C(/O)c3ccc(C)c(F)c3)C(=O)C(=O)N2CCCN2CCOCC2)c2ccccc21 (configuration not stated)	·	5.0
COc1cc(OC)cc(C(=O)N(C)CCOc2ccc(Cl)cc2)c1	·	13.0
O=C(CSc1nnc(Cc2cc(=O)[nH]c(=O)[nH]2)n1-c1ccc(Cl)cc1)N1CCCCC1	-1.4	9.0
CC(C)(C)C(=O)COC(=O)C1CC(=O)N(c2ccccc2)C1 (configuration not stated)	0.8	-15.0
Cc1cccc(-n2cnc3cc(C(=O)NCCN4CCOCC4)ccc32)c1	·	10.0
CCn1c(=O)cc(Nc2ccc(C)c(C)c2)[nH]c1=O	·	-23.0
CCCNC(=O)C1CCN(c2nn3cc(-c4ccc(F)cc4)nc3s2)CC1	·	3.0
O=C(N[C@@H](Cc1ccccc1)C(=O)N1CCN(c2ncccn2)CC1)c1ccc(Cl)cc1	·	16.0
CN=C(NC)SC1CC(=O)N(c2ccccc2F)C1=O (configuration not stated)	-0.8	-6.0
Cc1ccccc1C1CC(=O)NC2=C1C(=O)CCC2 (configuration not stated)	·	3.0
C=CCn1c(SCC(=O)c2ccc(OC)cc2)nnc1-c1cccs1	-2.5	3.0
c1nc2ccc(Oc3ccc4nc[nH]c4c3)cc2[nH]1	·	5.0
CC(=Nc1ccccc1C(F)(F)F)c1ccncc1	0.3	·
CN(C)c1ccc(/C=N/NC(=O)c2ccn(C)n2)cc1	·	19.0
CCOC(=O)C(C)Oc1ccc(S(N)(=O)=O)cc1 (configuration not stated)	-0.7	·
CCN1CN=C(SCc2c(Cl)cccc2Cl)NC1	-1.6	·
CCOC(=O)CCc1c(C)c(C#N)c2nc3ccccc3n2c1C	-1.9	-6.0

Arranged by value in S aureus helic (largest number first): some entries from above.
molecule	MgrA DNA FP	S aureus helic
O=C(C(c1ccccc1)c1ccccc1)N1CCOCC1	·	10.0
CCOC(=O)CCc1c(C)c(C#N)c2nc3ccccc3n2c1C	-1.9	-6.0
Cc1ccc(SCCC(=O)O)cc1	0.4	-22.0

Continuation.
compound	MgrA DNA FP	S aureus helic
O=C(CSc1nnc(Cc2ccccc2)o1)N1CCCc2ccccc21	·	16.0
O=C(c1nn(Cc2ccccc2)c(=O)c2ccccc12)N1CCCCC1	·	13.0
O/N=C/c1c(F)cccc1F	-1.6	·
N#CCSc1nc(N)c(C#N)c(-c2cccc(F)c2)c1C#N	-2.2	8.0
CCCCNC(=O)Cn1ncc2c(=O)oc3ccc(C)cc3c21	·	17.0
COc1ccccc1CN(C)C(=O)c1cnc(C)cn1	·	-4.0
COc1cc(/C=C2/C(=O)ON=C2C)cc(Cl)c1OCc1ccc(C)cc1	47.7	8.0
CCOC(=O)C1=C(c2ccccc2)N=C2SCC(=O)N2C1c1ccc(OCC)cc1 (configuration not stated)	-0.3	0.0
O=C(Nc1ccccc1)N1CCn2cccc2C1c1ccccc1 (configuration not stated)	·	5.0
CN(C)Cc1ccccc1C#N	·	2.0
COc1cccc(S(=O)(=O)NCc2ccco2)c1	·	32.0
CSc1nnc(CNC(=O)NCc2ccccc2)n1C(C)C	2.6	4.0
c1ccc2c(c1)COC(CN1CCOCC1)OC2	2.8	21.0
C=C(C)CSc1nc(N2CCOCC2)c2c(c1C#N)CC(C)(C)OC2	-0.6	·
CN(C)CCC(c1ccccc1)c1ccccn1 (configuration not stated)	1.1&-0.8	·
c1csc(-c2csc3nc(CN4CCOCC4)nc(Sc4nnc(C5CC5)o4)c23)c1	·	-7.0
C=CCSc1n[nH]c(=O)n1-c1cccc(Cl)c1	-2.2	·
CC1=C/C(=N/NC(=O)Cc2csc(N3CCOCC3)n2)CC(C)(C)C1	·	-9.0
C=CCNC(=O)CN1CCN(S(=O)(=O)c2ccccc2C(F)(F)F)CC1	·	-4.0
CC1=CS/C(=C(/C#N)C(=O)N2CCCCC2)N1c1ccccc1	-0.1	5.0
O=C(Nc1cccnc1Cl)c1ccc(Oc2ccccc2)cc1	2.0	2.0
CC(=O)N1c2ccc(S(=O)(=O)N(C)c3ccc(C)cc3)cc2CC1C (configuration not stated)	·	-2.0
CC1(C)CC(=O)C(C=NC(CO)(CO)CO)=C(O)C1	-7.3	7.0
O=C1c2ccccc2S(=O)(=O)N1Cc1cccc(Cl)c1	0.6	-6.0
CC1(C)CC(=O)C2=C(C1)N(c1ncn[nH]1)C(N)=C(C#N)C2c1ccsc1 (configuration not stated)	1.8	13.0
CC1=C(O)C(=O)OC1c1c(F)cccc1Cl (configuration not stated)	0.6	·
CC(=O)Nc1ccc(S(=O)(=O)NCc2csc3ccccc23)cc1	-0.2	·
NC(=O)CN1C(=O)COc2ccc(Cl)cc21	-1.8	3.0
COc1ccccc1Oc1ccc(S(=O)(=O)N2CCCC2)cc1	·	17.0
Cc1nn(C(=O)c2c(-c3c(Cl)cccc3Cl)noc2C)c(C)c1Br	-2.1	·
O=S(=O)(NC(c1ccccc1)c1ccccc1)c1ccc(-n2cnnn2)cc1	·	-25.0
Brc1cccc(-c2csc(Nc3cccnc3)n2)c1	-0.5	·
COc1ccc(C(=O)Cn2c(=O)oc3ccc(C)cc32)cc1	-0.3	·
Cn1ccsc1=NC(=O)c1ccc(S(C)(=O)=O)cc1	·	-8.0
CC(C)(C)NC(=O)CSc1nc2ccc(N3C(=O)c4ccccc4C3=O)cc2s1	-1.8	9.0
C#CCOC(=O)Nc1cnc(N2CCOCC2)c(C(F)(F)F)c1	·	-11.0
Oc1ccc(Oc2ccc(C(F)(F)F)cn2)cc1	-2.6	·
CCOC(=O)CSc1nc(=O)cc(N)n1CCc1ccccc1	7.3	16.0
O=c1[nH]c(O)c(C=Nc2cc(C(F)(F)F)ccc2N2CCCCC2)c(=O)[nH]1	·	9.0
CC(C)=NOC(=O)c1ccc(CSc2ccc(C(F)(F)F)cn2)o1	·	8.0
COc1ccc(C2=NN(C(=O)CNc3cccc4ccccc34)C(c3ccco3)C2)cc1 (configuration not stated)	·	15.0
Cc1ncc(C[n+]2csc(CCO)c2C)c(N)n1	-6.3&5.5	2.0
CCOC(=O)c1cnc2c(ccc3ccccc32)c1NCC(C)C	-0.2	5.0
COc1ccc2oc(C)c(C(=O)CSc3ccccc3)c2c1	1.9	11.0
CCCN1C(=O)/C(=C/c2cc(Br)c(O)c(OCC)c2)NC1=S	·	-118.0
Brc1cccc(-c2nnc(CN3CCc4ccccc4C3)o2)c1	·	-21.0
O=C(OCCN1C(=O)c2cccc3c(N4CCOCC4)ccc(c23)C1=O)c1cccc(Cl)c1	-3.4	·
CCCCNC(=O)c1ccc2[nH]c(C)c(C)c2c1	·	5.0
O=C(CCCn1c(=O)oc2ccccc21)N1CCc2ccccc2C1	·	-10.0
CC(=O)N1CCOc2cc(S(=O)(=O)NCCc3cccc(C)c3)ccc21	-0.9	6.0
N#CNC1=NC(c2ccccc2)C2=C(N1)/C(=C\c1ccccc1)CCC2 (configuration not stated)	·	-9.0
N#Cc1ccc(-c2csc(NC(=O)C3CCCCC3)n2)cc1	·	13.0
CCOc1ccc(NC(=O)CSc2nc(=O)n(Cc3ccco3)c3c2CCCC3)cc1	·	16.0
CCCC1(C(=O)O)NC(c2ccccc2O)C2C(=O)N(Cc3ccccc3)C(=O)C21 (configuration not stated)	·	15.0
Cn1cnc(S(=O)(=O)N(Cc2ccccc2)Cc2cccs2)c1	-2.0	·
O=C(CN(C1CCCCC1)S(=O)(=O)c1ccc(F)cc1)NCC1CCCO1 (configuration not stated)	-3.7	-9.0
CN(C)C(=O)CN(C#N)c1nc(Cl)nc(N(C)C)n1	-0.9	-4.0
CCCCc1nnc(NC(=O)CCN2C(=O)/C(=C\c3ccco3)SC2=S)s1	·	8.0
O=C1NC2(CCCCC2)C(=O)N1Cc1nnc(-c2ccccc2)o1	·	-6.0
C=C(C)Cn1c(-c2ccco2)nc2ccccc21	·	2.0

Other structures follow.
compound	MgrA DNA FP	S aureus helic
CC1(C)S[C@@H]2[C@H](NC(=O)[C@H](C(=O)O)c3ccsc3)C(=O)N2[C@H]1C(=O)O	1.5	·
CCCCn1c(C2CC(=O)N(c3ccccc3)C2)nc2ccccc21 (configuration not stated)	·	4.0
Cc1cc(C)n(CC(=O)Nc2ccccc2C)c(=O)n1	·	-4.0
Cc1ccnc(NC(=O)CCSc2ccccc2)c1	0.7	22.0
CN(C)CCNC(=O)c1ccc(S(=O)(=O)N2CCCCC2)cc1	·	-5.0
CS/C(=C/C(=O)c1cccs1)Nc1ccccc1Cl	-2.0	·
Nc1ccc(S(=O)(=O)N2CCCC2)cc1Cl	-0.3	4.0
Clc1cccc(Cl)c1CSc1ncc2ccccn12	4.3	·
CNC(=O)COC(=O)c1ccccc1Oc1ccccc1	-1.6	21.0
O=C(CSc1c2c(nc3ccccc13)CCCC2)NCc1ccco1	0.5	11.0
Cc1nn(-c2ccc(F)cc2)c(Cl)c1C(=O)OCC#N	·	-1.0
COc1ccc(C(=O)Nc2nnc(CCS(=O)(=O)c3ccc(C)cc3)s2)cc1OC	0.3	·
O=S(=O)(Nc1ccc2c(c1)OCO2)c1ccc(F)cc1	-1.9	·
Cc1oc(-c2ccc3c(c2)OCCO3)cc1C(=O)NCC(=O)O	·	-3.0
Cc1ccc(S(=O)(=O)N2CCOCC2)cc1C(=O)OCc1nc2ccc(Cl)cc2n1CCO	·	17.0
Cc1cc(C)c(C#N)c(SCCN2CCCCC2)n1	-1.0	6.0
CC(C)(C)OC(=O)N1CC=C2C(C1)C(c1cccc(F)c1)C(C#N)=C(N)C2(C#N)C#N (configuration not stated)	-1.6	1.0
O=C(N1CCCCC1)N1CCN(S(=O)(=O)N2CCCCC2)CC1	7.8	5.0
Cc1nc2ccc(Cl)cc2c(-c2ccccc2)c1C(=O)N1CCOCC1	1.5	-25.0
CCCn1nc(C(=O)N(C)Cc2cccs2)c2ccccc2c1=O	·	23.0
CCN1CCN(CCCNC(=O)C2CCN(c3nc4ccccc4n3Cc3ccc(F)cc3)CC2)CC1	·	-3.0
CN(C)c1ccc(C(=O)NCc2ccc3c(c2)CCO3)cc1	·	15.0
CCOC(=O)c1c(-c2ccccc2)c2cc(Cl)ccc2[nH]c1=O	0.1	4.0
COc1ccc(CNCCN(C)C)cc1OC	3.2	9.0
COc1ccc(C)cc1Nc1nnc(C)c(=O)[nH]1	-0.6	19.0
O=C(NCc1ccncc1)c1cc2n(n1)C(C(F)(F)F)CC(c1ccco1)N2 (configuration not stated)	-9.4	3.0
COc1ccc(OC(=O)c2cc3ccccc3o2)cc1	0.9	0.0
O=C1CCCN1CN1CCN(CN2CCCC2=O)CC1	1.7	-1.0
N#Cc1ccccc1NC(=O)CSc1ccccn1	0.5	·
O=C1CCCN2N=C(SCc3ccccc3F)SC2=N1	3.4	0.0
CCOc1cccc(/C=N/NC(=O)c2[nH]nc(-c3ccccc3)c2C)c1O	·	37.0
Cc1ccc(-c2cc(C(F)(F)F)c3c(N)c(C(=O)c4ccc5c(c4)OCO5)sc3n2)o1	9.4	-124.0
O=C(c1ccco1)c1cn(CC(=O)N2CCc3ccccc3C2)c2ccccc12	14.8	2.0
CCN(Cc1ccncc1)S(=O)(=O)c1cc(C(C)(C)C)ccc1C	·	-8.0
Clc1ccccc1CNCc1ccncc1	-5.6	-1.0
CC(=O)NCc1ccc(C(=O)COC(=O)/C=C/c2cccs2)o1	·	4.0
Brc1ccccc1-c1nc2ccccc2c2nc3ccccc3n12	-0.2	9.0
Cc1ccc(NC(=O)CN(C)C(=O)Cc2c[nH]c3ccccc23)cc1	·	-4.0
CCOC(=O)CC1=CSC2=NCCN12	·	16.0
CCOC(=O)c1[nH]c(C)c(C(C)=O)c1C	-0.9	·
CCCN(CCC)C(=O)c1ccc2c(c1)N(Cc1ccccc1C)C(=O)c1ccccc1S2=O (configuration not stated)	-0.7	2.0
Cc1cccc(Oc2ccc([N+](=O)[O-])cn2)c1C	-2.7	·
CCC(c1ccccc1)c1nnc(N)s1 (configuration not stated)	·	-15.0
CC(C)N1CCN(S(=O)(=O)c2ccc(Cl)cc2)CC1	-1.4	-4.0
COc1ccc(-c2n[nH]c(C(F)(F)F)c2-c2cc3ccccc3o2)c(O)c1	1.1	28.0
COc1ccc(-n2c(-c3ccc(Cl)cc3)csc2=N)cc1OC	-0.1	·
